Screening results from PubChem BioAssay.
Cruzain noTriton – cruzain (T. cruzi) inhibition without detergent; P25779; purified cruzain, Z-FR-AMC fluorescence, no detergent; Potency, µM, inactives show max response, negative = inhibition, actives largely listed as inhibitors; hit rate 2.3% among 200,000; active = well fitted curve in the direction sought with a large enough effect; inconclusive = small, poorly fitted or top-dose-only effect, or another doubt; inactive = no such curve, though single readings can be large; an effect the other way counts as inactive or inconclusive;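 note: plate controls were enzyme without inhibitor for no effect and buffer without enzyme for full effect; nearly all actives have a fitted effect of over 40% in size; top concentration of the series not given in the record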
Target sequence (P25779 123-467 limits assumed): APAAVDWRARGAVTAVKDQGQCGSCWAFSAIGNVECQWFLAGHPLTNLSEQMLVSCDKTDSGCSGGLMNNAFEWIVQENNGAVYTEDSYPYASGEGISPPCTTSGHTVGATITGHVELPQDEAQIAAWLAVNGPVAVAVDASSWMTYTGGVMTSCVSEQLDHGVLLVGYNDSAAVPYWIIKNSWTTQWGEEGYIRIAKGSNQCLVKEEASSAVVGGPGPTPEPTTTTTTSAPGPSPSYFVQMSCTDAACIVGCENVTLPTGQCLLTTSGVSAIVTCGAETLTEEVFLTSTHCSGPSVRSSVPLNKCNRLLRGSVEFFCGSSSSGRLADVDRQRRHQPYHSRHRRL
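Detergent-free condition (0.00005% Triton X-100) in acetate buffer pH 5.5 with DTT. 1.5 nM enzyme and compound were pre-mixed 15 min, then 2 uM Z-FR-AMC substrate added; reaction progress from fluorescence change between first and third reads (60 s).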
SARS PLP yeast – inhibitors of SARS-CoV papain-like protease in yeast | S. cerevisiae expressing SARS-CoV PLpro, growth rescue; control for the full effect not named in the record | hit rate 0.19% among 330,000 | Potency, µM (titrated, usually from 32.9 µM), for the others: top-dose activity, positive = growth rescue; note: 0% is about no effect; nearly all actives have a fitted effect of over 55% in size; growth read by luminescence after 48 h
MARV entry inh – Marburg virus entry inhibition | AID 540276 | hit rate 1.8% among 300,000 | Potency, µM (titrated, usually from 37.8 µM), inactives show at the highest dose activity change, negative = inhibition, actives largely listed as inhibitors | Marburg virus pseudotyped entry inhibition, cell reporter; control for the full effect not named in the record; about a third of the inactives were read at about 46 µM; active = well fitted inhibition curve with a large enough effect; inconclusive = small, poorly fitted or top-dose-only effect, or effect the other way; inactive = flat fitted curve, though single readings scatter; tested in HEK293 cells; about a fifth of its hits are not listed in these tables; note: % is set by controls: 0 for no effect and ±100 for the full control effect; luciferase read-out
LASV entry inh – inhibitors of Lassa virus binding or cell entry; Lassa virus pseudotype entry inhibition, cell reporter; control for the full effect not named in the record; Potency, µM (series often up to 37.9 µM), inactives show at the highest dose activity change, negative = inhibition, usual class: inhibitors; hit rate 1.2% among 300,000; AID 540256; active means well fitted inhibition curve with a large enough effect; inconclusive means small, poorly fitted or top-dose-only effect, or effect the other way; inactive means flat fitted curve, though single readings scatter; tested in HEK293 cells; note: % is set by controls: 0 for no effect and ±100 for the full control effect; nearly all actives have a fitted effect of over 50% in size; luciferase read-out
RE007 growth inh – less growth of the S. pombe RE007 Vpr strain; hit rate 0.21% among 360,000; Potency, µM (doses to about 92.2 µM), for inactives: top-dose activity change, negative = less growth; S. pombe RE007 Vpr strain, BacTiter-Glo ATP luminescence, 24 h; control for the full effect not named in the record; active = well fitted falling curve with a large enough effect; inconclusive = small, poorly fitted or top-dose-only effect; inactive = no such curve, though single readings can be large or run the other way;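 note: % is set by controls: 0 for no effect and ±100 for the full control effect; nearly all actives have a fitted effect of over 50% in size; the assay follows cell death caused by Vpr and the record does not say whether a fall means rescue or toxicity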
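Fission yeast RE007 carrying one integrated HIV-1 vpr copy, seeded at OD 0.01 in PMG+AL medium with 23 nL pinned compound. Grown 24 h at 30 degrees; viability read by BacTiter-Glo luminescence after 5 min.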
Cruzain inh Det – blocks cruzain activity in presence of Triton detergent. P25779. purified cruzain, Z-FR-AMC fluorescence, 0.01% Triton. Potency, µM, without a hit: max response, negative = inhibition, most hits filed as inhibitors. hit rate 0.43% among 200,000; active = well fitted curve in the direction sought with a large enough effect; inconclusive = small, poorly fitted or top-dose-only effect, or another doubt; inactive = no such curve, though single readings can be large; an effect the other way counts as inactive or inconclusive;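 note: plate controls were neutral wells for no effect and buffer without enzyme for full effect; nearly all actives have a fitted effect of over 40% in size; top concentration of the series not given in the record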
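Purified cruzain (1.5 nM final) was preincubated with compounds for 15 min at room temperature in 100 mM sodium acetate pH 5.5, 5 mM DTT, 0.01% Triton X-100. Reaction started with 2 uM Z-FR-AMC; AMC fluorescence change over 60 s gave activity.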
2A StopGo – FMDV 2A StopGo reporter, luciferase signal; Potency, µM (doses to about 57.9 µM), for the others: at the highest dose signal change, negative = less light; hit rate 1.2% among 410,000; human cells with a luciferase reporter of 2A StopGo recoding; control for the full effect not named in the record; active = well fitted falling curve with a large enough effect; inconclusive = small, poorly fitted or top-dose-only effect; inactive = no such curve, though single readings can be large or run the other way; tested in HEK293T cells; note: % is set by controls: 0 for no effect and ±100 for the full control effect; nearly all actives have a fitted effect of over 45% in size; luciferase light after 4 h
NS1 function inh – influenza NS1 inhibition. S. cerevisiae slowed by influenza A NS1, growth recovery by OD600. Potency, µM (doses to about 46.1 µM), for the others: at the highest dose activity, positive = more growth. hit rate 0.4% among 270,000. AID 2326; note: actives are rising curves; nearly all actives have a fitted effect of over 50% in size
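In this qHTS, NS1 from influenza A is expressed in budding yeast, where it slows growth. Cells are switched from glucose to 2% galactose medium (pH 6.0, -URA), treated with compound, and growth recovery is read at OD600.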
Starred values were filed as active, the others as inactive; ? = inconclusive; / = not tested or not shown; & = joins results of further samples; [ ] = remark or other dose. Unless noted, calls come from the whole dose curve; as a rule, active means well fitted rising curve with a large enough effect; inconclusive means small, poorly fitted or top-dose-only effect; inactive means no such curve, though single readings can be large or run the other way. Potency is the fitted concentration of half-maximal effect.

SMILES	Cruzain noTriton	SARS PLP yeast	MARV entry inh	LASV entry inh	RE007 growth inh	Cruzain inh Det	2A StopGo	NS1 function inh
CCN(C(=O)COC(=O)c1cnc(C)cn1)C1CCS(=O)(=O)C1 (stereo not given)	/	-1%	?	4%	22%	/	-11%	/
Cc1cc(C)c2c(CC(=O)Nc3ccc(Cl)cn3)coc2c1	-22%	-4%	-3%	?	-6%	-1.5%	?	-4%
COc1c(Cl)cc(Cl)cc1C(=O)Nc1ccc(NC(C)=O)cc1	/	0%	-2%[46.1 µM]	4%[46.1 µM]	4%	/	-2%	-3%
COc1ccc(/C=C(/NC(=O)c2ccco2)C(=O)NCCc2ccccc2)cc1	/	7%	?	-14%	-8%	/	-6%	10%
Cc1ccc(Cn2c(CNS(=O)(=O)c3ccc(C(C)(C)C)cc3)nc3cccnc32)cc1	-20%	/	/	?	/	-8.1%	49%[activator]	/
COC(=O)COc1cc(C)cc2oc(=O)c(CC(=O)OC)c(C)c12	?	-4%	4%	5%	4%	-19%	0%	-10%
COc1ccc(NC(=O)C(NC(=O)Cc2cccs2)c2ccc(C)cc2)cc1 (stereo not given)	?	15%	16%	-6%	15%	1.0%	7%	-4%
CC(C)(C)n1nnnc1C(c1ccc(F)cc1)N1CCN(Cc2ccc3c(c2)OCO3)CC1 (stereo not given)	-17%	1%	-7%	-1%	-11%	-1.6%	-19%	-5%
Cc1ccc(-c2cc(C(=O)N3CCOCC3)no2)cc1	/	0%	2µM*	/	5%	/	-68%	-1%
CCc1cc2c(CN3CCN(C)CC3)cc(=O)oc2cc1O	5%	-5%	6%[46.1 µM]	4%	9%	-22%	10%	3%
CCN1C(=O)c2cccc3c(S(=O)(=O)NCCc4c[nH]c5ccccc45)ccc1c23	24%	10%	0%	-16%	-2%	-5.0%	58%[activator]	6%
COc1cc(/C=N/N2C(=O)C3C4c5ccccc5C(c5ccccc54)C3C2=O)ccc1O (stereo not given)	-11%	6%	?	13µM*	10%	-1.7%	-13%	11%
COc1ccccc1NC(=O)Cn1ccn(-c2cccc3ccccc23)c(=O)c1=O	/	4%	?	-20%	-13%	/	22%	/
CCOc1ccc(-n2cc(-c3ccccc3)c3c(N4CCC(C)CC4)ncnc32)cc1	-15%	/	/	-22%[46.1 µM]	/	0.7%	-19%	/
O=C(NC1CC(=O)N(c2ccc(Cl)cc2)C1)N1CCN(C(=O)c2ccco2)CC1 (stereo not given)	/	-7%	1%	?	-15%	/	-20%	/
O=C(O)c1csc(-c2ccccc2)n1	/	-1%	/	/	4%	/	10%	-9%
Cc1ccc(S(=O)(=O)NC2(C(F)(F)F)NC(=O)N(c3ccccc3F)C2=O)cc1 (stereo not given)	/	5%	?	?	-17%	/	6%	6%
C#CCSc1nc(Cc2ccc(Cl)cc2)nc2ccccc12	0%	5%	?	-14%	-13%	-6.3%	0%	3%
Cn1cccc1CNCCc1ccccc1	-6%	-2%	-3%	/	/	3.4%	/	8%
COc1cc(OC)cc(C(=O)Nc2ncc3c(n2)CC(C)(C)CC3=O)c1	-15%	-1%	?	7%	-2%	-3.0%	31%[activator]	4%
C/C(N)=C(/C#N)C(=O)COC(=O)c1ccc(OCC2CCCO2)cc1 (stereo not given)	/	1%	?	5%[46.1 µM]	13%	/	29%	-15%
COc1ccc(C(=O)NNC(=O)CSc2nnnn2-c2cc(OC)cc(OC)c2)cc1	/	2%	15%	12%	0%	/	-1%	-3%
CCC(C)c1ccc(N(C(=O)c2ccco2)C(C(=O)NC2CCCC2)c2cccnc2)cc1 (stereo not given)	/	0%	?	?	-1%	/	22%	-5%
CCOC(=O)c1ccc(NS(=O)(=O)c2ccc3c(c2)OCCO3)cc1	2%	/	?	0%[46.1 µM]	/	-9.8%	-4%	/
Cc1cc(C)c(NC(=O)c2ccccc2N(C)S(C)(=O)=O)c(C)c1	-4%	-2%	11%	-14%	7%	5.6%	-15%	3%
COc1cc(S(=O)(=O)Nc2ccc(C)cc2)ccc1N=Cc1c(C)[nH]n(-c2ccc(C)cc2)c1=O	-13%	-12%	?	-19%	?	-2.9%	90%[activator]	23%
Cc1cccc(C(=O)Nc2nnc(Cc3ccccc3)s2)c1	/	-7%	18%[46.1 µM]	-27%[46.1 µM]	-12%	/	36%[activator]	5%
CC(NS(=O)(=O)c1ccc(Br)cc1)C(=O)NCC1CCCO1 (stereo not given)	/	0%	12%[46.1 µM]	18%[46.1 µM]	-8%	/	1µM*	-3%
CC(=O)N1CCN(Cc2nc3cc(NC(=O)c4ccccc4C)ccc3n2C)CC1	-5%	0%	-7%	7%	3%	0.5%	-11%	1%
CCOC(=O)C1CCCN(c2c(Nc3ccc(C)c(C)c3)c(=O)c2=O)C1 (stereo not given)	-12%	5%	/	/	-1%	-2.6%	-2%	-1%
O=c1[nH]cn[nH]1	/	1%	/	/	-1%	/	-15%	2%
CCCn1cc(S(=O)(=O)c2ccc(C)cc2)c(=O)c2cc(OC)ccc21	/	-1%	5%[46.1 µM]	-25%[46.1 µM]	6%	/	4%	-7%
Cc1nnsc1-c1c(C(=O)O)c(C)nn1-c1ccc(OC(F)(F)F)cc1	/	1%	-4%[46.1 µM]	-1%	12%	/	-17%	1%
Cc1cccc(C(=O)Nc2ccccc2C(=O)OCc2c(C)noc2C)c1	-4%	-5%	0%	9%	6%	-11%	0%	-35%
Cc1nnc2c3ccccc3nc(N3CCN(c4ccccc4)CC3)n12	23%	/	?	6%[46.1 µM]	/	-5.0%	-13%	/
N[C@@H](Cc1ccccc1)c1nnc(SCc2ccccc2F)o1	3%	2%	5%	8%	-19%	1.1%	0%	13%
Nn1c(SCC(=O)N2CCc3ccccc3C2)nnc1-c1cccs1	0%	-7%	2%	2%	0%	1.0%	-3%	11%
CCOC(=O)c1c(NC(=O)CC2Sc3ccc(C(F)(F)F)cc3NC2=O)sc(C)c1C (stereo not given)	?	5%	-9%	0%	/	-0.7%	-7%	10%
FCCCOc1ccc(/C=N/OCc2ccc(Cl)cc2Cl)cc1	-13%	-1%	-6%	-2%	17%	0.7%	-28%	4%
COc1cc(O)c(C(CC(=O)N2CCCC(C)C2)c2ccc3c(c2)OCO3)c(OC)c1 (stereo not given)	/	-4%	/	/	31%	/	7%	-3%
CCOC(=O)CN1C(=O)S/C(=C/c2cc(C)n(C)c2C)C1=O	/	/	-19%[46.1 µM]	?	-2%	/	57%[activator]	/
Cc1ccc(N2CC(c3nnc(Cc4ccc(Cl)cc4)o3)CC2=O)cc1 (stereo not given)	?	/	-24%[46.1 µM]	-1%[46.1 µM]	/	1.3%	5%	/
COc1cc(/C=C(\C#N)C(=O)Nc2ccccc2)ccc1OCCN1CCOCC1	/	1%	3%	4%	-3%	/	0%	-16%
Cc1nn(-c2ccccn2)c2c1C(=O)C(Br)CC2 (stereo not given)	/	-10%	?	-5%	5%	/	32µM*	/
CC(=O)Nc1ccc(S(=O)(=O)N2CCCCC2C(=O)O)cc1 (stereo not given)	/	0%	/	/	9%	/	1%	12%
CCCCC(=O)N/C(N)=N/c1nc2ccccc2o1	/	0%	?	?	-14%	/	-13%	0%
CCC(=O)N1c2ccccc2NC2=C(C(=O)CC(C)(C)C2)C1c1ccc(O)c(OC)c1 (stereo not given)	/	2%	/	/	-3%	/	2%	3%
CCOc1ccc(NC(=O)CN2CCC(n3cnc4cc(F)ccc43)CC2)cc1	/	0%	?	22%[46.1 µM]	-20%	/	3%	/
Cn1c(CNC(=O)CCNC(=O)c2ccc(F)c(F)c2)cc(=O)n(C)c1=O	/	9%	/	/	9%	/	-16%	-3%
CCOC(=O)Cc1csc(NC(=O)C2CCCN(S(=O)(=O)c3cnc[nH]3)C2)n1 (stereo not given)	-7%	1%	/	/	-4%	4.2%	-28%	-7%
Cc1ccc(S(=O)(=O)N2CCN=C2SCc2ccc(Cl)c(Cl)c2)cc1	-6%	6%	5%	17%	-1%	-3.8%	-13%	3%
Cc1cccc(C(=O)n2nc(-c3ccco3)nc2NCc2ccccc2)c1	-15%	/	?	?	/	-4.9%	16%	/
Cc1ccnc(NS(=O)(=O)c2ccc(NC(=O)C3CC3)cc2)n1	/	14%	-11%	14%	8%	/	-6%	10%
Cc1cc(N2CCN(C)CC2)nc2ccc(NC(=O)c3ccccc3F)cc12	-5%	0%	?	?	3%	-8.9%	25%&45%	/
COc1ccc(CNCCSc2nnnn2C)cc1OC	-1%	9%	2%	-11%	-3%	4.0%	10%	9%
CCOC(=O)CSc1nc(-c2ccc3c(c2)OCO3)ccc1C#N	-2%	3%	10%&10%	0%	9%	-3.5%	47%[activator]	13%
COc1ccccc1CC(=O)NCC1CCCO1 (stereo not given)	-7%	/	?	3%	-15%	7.8%	3%	9%
COc1ccc(-c2nc3c4ccccc4n(CC(=O)Nc4cc(F)ccc4F)c(=O)n3n2)cc1	-17%	/	/	14%[46.1 µM]	/	-0.1%	1%	/
O=C(O)c1cnn2cc(-c3[nH]ncc3[N+](=O)[O-])cnc12	3%	?	17%	-3%	-12%	-4.5%	-16%	17%
Fc1ccc(C2c3cccn3CCN2C(=S)Nc2cccc(F)c2)cc1 (stereo not given)	/	-10%	-29%	?	7%	/	22%	/
(listing goes on)
SMILES	Cruzain noTriton	SARS PLP yeast	MARV entry inh	LASV entry inh	RE007 growth inh	Cruzain inh Det	2A StopGo	NS1 function inh
CCOC(=O)c1c(C)[nH]c(C)c1S(=O)(=O)N(C)CC(=O)Nc1ccccc1OC	/	-3%	/	/	-4%	/	-10%	-9%
CCOc1cc(C=O)ccc1OCCSc1ccc(Cl)cc1	-5%	-18%	25%	-3%	11%	-8.9%	-2%	-89%
Cc1c2cnn(CC(=O)NCC(C)c3ccccc3)c(=O)c2c(C)n1Cc1cccc(Cl)c1 (stereo not given)	3%	/	17%[46.1 µM]	-1%[46.1 µM]	/	-4.3%	-5%	/
CC(=O)OC1CC(n2ccc(NC(=O)c3ccccc3)nc2=O)OC1CO (stereo not given)	0%	0%	2%	27%	-8%	1.5%	-17%	5%
